High-throughput results from PubChem.
RanGTP-Imp inh: disruptors of Ran-importin-beta complex formation – biochemical, FRET, CFP-Ran, YFP-importin-beta, homogeneous, primary screen; cell-free CFP-Ran/YFP-importin-beta FRET ratio; inhibition, % (test concentration not listed); 300,000 compounds, 1.1% hits; AID 2216;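 active means most replicates above 15%; inconclusive means exactly half above 15%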;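 further: 0% = DMSO wells and 100% = Ran loaded with GDP instead of GTP; wells of about 40 µL received 100 nL stock; the first replicate is given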
T cruzi repl: T. cruzi replication inhibition; T. cruzi beta-gal in NIH3T3, luminescence, 90 h; inhibition, % (test concentration not listed); 300,000 compounds, 1.4% hits;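 active means mean inhibition across valid replicates above about 55%, limit read from the data; inconclusive means mean below that limit but half or more replicates reach it; inactive means mean below it, under half of replicates reach it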;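 further: signal also drops with host cell toxicity which is not excluded here; 0% = plate median of DMSO wells and 100% = zero luminescence signal; higher percent means less beta-gal luminescence so fewer parasites; stock transfer was 50 nL into about 50 µL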
AF4-AF9 inh: MLL-AF4/AF9 protein interaction inhibition; 350,000 compounds, 0.47% hits; AlphaScreen, biotin-AF4 peptide binding to FLAG-AF9; inhibition, % at 10 µM; AID 651704; P42568;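 active means every replicate reaching a set inhibition limit, whatever the replicate mean, cut at about 25% in these data; inconclusive means mean inhibition reaches that limit but some replicates miss it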;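 further: 0% = plate neutral control median and 100% = total signal loss; the record names both 10 and 1 µM as test concentration; the first replicate is given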
Target sequence (P42568 whole entry, looked up): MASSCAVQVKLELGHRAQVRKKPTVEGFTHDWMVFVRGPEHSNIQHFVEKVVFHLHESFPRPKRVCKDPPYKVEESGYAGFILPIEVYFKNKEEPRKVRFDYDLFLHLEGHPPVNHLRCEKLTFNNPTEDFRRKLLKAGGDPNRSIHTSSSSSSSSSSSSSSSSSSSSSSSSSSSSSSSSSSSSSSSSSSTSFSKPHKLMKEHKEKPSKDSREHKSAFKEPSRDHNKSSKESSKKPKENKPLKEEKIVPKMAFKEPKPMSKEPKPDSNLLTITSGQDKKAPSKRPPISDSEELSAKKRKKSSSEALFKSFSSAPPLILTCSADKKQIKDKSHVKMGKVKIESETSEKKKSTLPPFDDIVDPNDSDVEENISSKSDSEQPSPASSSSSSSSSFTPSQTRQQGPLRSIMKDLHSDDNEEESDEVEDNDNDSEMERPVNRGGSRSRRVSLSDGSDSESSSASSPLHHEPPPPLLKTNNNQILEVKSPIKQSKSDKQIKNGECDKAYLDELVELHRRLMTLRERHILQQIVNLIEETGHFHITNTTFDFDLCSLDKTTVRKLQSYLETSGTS
Vif A3G: inhibitors of Vif binding to APOBEC3G peptide, primary screen, biochemical, TR-FRET, GST-Vif 1-94, biotin-A3G peptide, dose response retest (AID 1117319); TR-FRET GST-Vif / biotin-A3G peptide binding; higher % means a stronger effect; test concentration not given here; strong numbers were not always called active; inhibition, %, or IC50 in µM where a hit was titrated; 260,000 compounds, 0.57% hits;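 active means above the screen mean plus three standard deviations and confirmed in dose response; inconclusive means results disagree or hit not tested in dose response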;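 further: Vif residues 1-94 fused to GST binding biotinylated APOBEC3G peptide 110-148; 0% = full assay without inhibitor and 100% = GST in place of GST-Vif; retest series ran down from 100 µM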
Ecoli rRNA inh: inhibits bacterial ribosomal RNA function over humanized ribosomes; 350,000 compounds, 1.6% hits; AID 720706; E. coli WT GFP vs humanized-ribosome RFP mutants, fluorescence, 24 h; stronger effect = lower value; DMSO median 0, no signal -100; GFP signal change (wild-type ribosome), % (concentration not given with the values);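 active means significant combined selectivity score with lowered wild-type GFP, culture density cut under 30%, mutant RFP and density less affected; inactive means any of these conditions unmet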; further: one replicate is shown; some compounds called inactive have numbers as strong as hits
Calb FLC: C. albicans growth modulation with fluconazole; C. albicans CaCi-2 (fluconazole-resistant clinical isolate) + fluconazole, Alamar Blue growth, 48 h; growth inhibition, % (test concentration not listed); 300,000 compounds, 0.57% hits; AID 1979;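 active means most replicates above 75%; inconclusive means exactly half above 75%; inactive means most below 75%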;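 further: all wells also contain fluconazole at 8 µg/ml as a sub-toxic cotreatment; 0% = median of DMSO wells and 100% = median of geldanamycin control wells; wells of about 8 µL received 7.5 nL stock; the first replicate is given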
A1 inh: inhibitors of the anti-apoptotic protein A1, read as caspase activation | MEF A1-2A-BIM cells, Caspase-Glo 3/7 luminescence, 3 h; percent of clofoctol response, vehicle zero | caspase activation, % (concentration not given with the values) | 330,000 compounds, 0.066% hits;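 active means over half of replicate activation scores above 10%, or exactly half above 10 with the replicate mean above 10; inconclusive means replicate mean below 10 yet half the replicates above 10; inactive means over half of replicates below 10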;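 further: wells of about 30 µL received 50 nL stock; many hits fall short of the cut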
Beta cell apopt: beta cell apoptosis inhibition. INS-1E cytokine-induced death, ATP luminescence, 48 h; percent of positive-control rescue, neutral wells zero. protection from apoptosis, % (no concentration beside the values). 300,000 compounds, 0.8% hits;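 active means all replicates at 75% or more, or half of them and the mean; inconclusive means half reach 75% but not the mean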;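 further: 0% = cytokine-treated negative control wells and 100% = positive control rescue; higher means more ATP so stronger rescue from cytokine killing; wells of about 40 µL received 100 nL stock; the first replicate is given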
Ecoli rRNA inh OD600: recorded beside Ecoli rRNA inh, whose call it bears; OD600 change, %; measured here: OD600 growth;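 optical density of the mix in the first replicate; 0 = DMSO median and -100 = no signal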
Ecoli rRNA inh RFP: also measured in Ecoli rRNA inh; calls as there; RFP signal change, %; measured here: RFP humanized mutant strains;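 first replicate; 0 = DMSO median and -100 = no signal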
An asterisk follows results filed as active; ? = inconclusive; / = not tested or not shown. The list is partial, so the mix of outcomes need not match the whole.

mol,RanGTP-Imp inh,T cruzi repl,AF4-AF9 inh,Vif A3G,Ecoli rRNA inh,Ecoli rRNA inh OD600,Ecoli rRNA inh RFP,Calb FLC,A1 inh,Beta cell apopt
COc1ccc(CNC(=O)C2CCC(CNS(=O)(=O)c3cccs3)CC2)cc1 (stereo unspecified),-4.1,0.5,-6.0,/,-0.4,-1.1,-0.5,-1.3,-0.8,3.5
CC(C)(CN1CCN(Cc2ccccc2)CC1)NS(=O)(=O)c1ccc(Cl)cc1,1.2,37.8,5.5,0.0%,-11.5,-14.2,14.8,-3.4,-0.1,4.2
CCN(CC)C(=O)Oc1ccc(Br)c2ccccc12,-2.3,13.8,/,-14.8%,/,/,/,12.0,3.3,2.7
CCOc1ccc(CO/N=C/c2c(C)[nH]c(=O)[nH]c2=O)cc1,-2.1,4.2,-2.5,17.2%,-2.7,1.8,-0.9,0.9,0.9,9.3
CC1(O)C(=O)C=C2C=C(C3CC3)OC=C2C1=O (stereo unspecified),-7.5,-10.1,/,/,/,/,/,10.2,0.2,-4.2
NC(N)=NS(=O)(=O)c1ccc(NC(=S)NC(=O)c2ccc(Br)cc2)cc1,-0.6,-9.3,-1.3,12.4%,8.2,11.8,3.7,2.9,-0.1,1.1
N#Cc1ccc(C(=O)Nc2cc(S(=O)(=O)Nc3ccc(Cl)cc3)ccc2N2CCCCC2)cc1,1.0,30.4,/,/,/,/,/,-15.2,0.7,11.7
COc1ccc(CSCC(=O)NN=C2CCN(C)CC2)cc1,-0.5,-0.1,-0.8,7.2%,20.2,13.1,2.2,13.5,0.6,-1.1
COc1ccccc1NC(=O)C1CCCN(S(=O)(=O)c2cccc3nsnc23)C1 (stereo unspecified),1.4,5.7,/,-73.4%,/,/,/,7.3,0.9,-1.3
O=C(CN(CCc1ccccc1)C(=O)c1csnn1)NCc1ccc(F)cc1,5.8,-8.8,0.6,/,10.1,6.9,3.4,-1.7,0.6,-0.6
CN(CC(CC(=O)Nc1nncs1)c1ccccc1)S(=O)(=O)c1ccccc1 (stereo unspecified),2.9,3.3,-2.3,3.2%,-6.9,-16.5,1.1,6.8,-0.3,6.4
CC(C)(C)NC(=O)CN(C(=O)CNC(=O)c1cccs1)c1ccccc1F,-4.5,-6.2,-2.8,/,5.8,5.4,-2.1,2.7,0.1,-2.5
CCOc1ccc(N=CC2=C(O)CC(C)(C)CC2=O)cc1,-4.7,2.5,/,16.6%,/,/,/,-5.7,/,-16.3
CCn1c(SCC(=O)N/N=C/C(C)=C/c2ccco2)nnc1-c1ccccc1,?,-13.4,/,29.4%,/,/,/,-4.7,-0.2,-3.8
CC(=O)/C(C(=N)N1CCN(C(c2ccccc2)c2ccccc2)CC1)=C(\C)O,?,-4.0,/,7.5%,/,/,/,-5.5,-1.1,-3.8
COc1ccc2[nH]cc(S(=O)(=O)c3ccc(C)cc3)c2c1,-0.2,-14.5,0.9,-5.4%,-23.8,-31.8,-2.2,1.8,-0.5,-9.2
CC(=O)/C(=C/c1ccccc1)C(=O)Nc1ccccc1C,0.3,4.4,-0.8,-12.0%,5.3,10.1,0.0,17.4,1.6,-14.8
COC(=O)c1ccccc1NC(=S)N1CCN(c2ccccn2)CC1,-0.4,2.4,0.3,?,-8.1,-7.9,-2.5,-0.4,2.1,2.3
COc1ccc(NC(=S)N2CCN(C(=O)c3ccco3)CC2)cc1,7.0,2.5,-2.3,/,1.1,-0.3,-1.0,2.3,-0.3,/
CCOC(=O)c1ccc(NCc2ccc(N(C)C)cc2)cc1,-3.5,-3.5,/,7.2%,1.6,12.1,-2.9,4.7,/,-4.9
CCN(CC(=O)Nc1c(F)cccc1F)C(=O)c1nc2nccc(C)n2n1,/,/,0.3,/,10.2,13.7,-1.1,/,-0.3,-0.8
O=C(NCc1ccco1)c1ccc(Cl)c(S(=O)(=O)N2CCc3ccccc32)c1,2.6,-0.4,2.9,4.8%,/,/,/,23.4,0.4,-11.1
Cc1cc(C)nc(NC(=O)CSc2ncccn2)n1,-2.9,1.9,/,-2.3%,/,/,/,-8.5,-1.0,1.6
CC1CCN(C(=O)CSc2nc3ccccc3[nH]2)CC1,6.1,-1.5,-7.2,0.7%,-4.5,-0.1,-2.1,?,0.3,-0.4
Cc1nn(Cc2ccc([N+](=O)[O-])cc2)c(=O)n1-c1ccccc1,-0.4,-6.6,/,27.8%,/,/,/,11.6,0.2,-6.8
O=C(CSc1nc2ccccc2o1)Nc1cc(C(F)(F)F)ccc1N1CCOCC1,1.2,10.5,/,-4.0%,/,/,/,-0.4,0.0,-0.1
CCNS(=O)(=O)c1ccc(CCC(=O)NCc2ccccn2)cc1,6.1,2.4,-0.9,/,3.0,8.4,0.0,11.0,?,-1.3
COCCNC(=O)CCCCCNS(=O)(=O)c1ccc(C)cc1,1.9,-12.5,/,26.6%,0.5,-0.8,-1.5,-1.7,-0.1,-5.3
C/C(=N\OCc1cccc(C(=O)O)c1)c1ccc(Cl)cc1,5.3,5.0,-3.3,5.8%,-39.1,-39.9,-9.4,8.3,-8.3,2.8
COc1ccc(C(=O)Nc2ccc3c(c2)OCO3)cc1OC,2.5,10.8,4.5,4.0%,9.5,9.7,-1.0,3.3,-6.6,12.7
CC1CCCCC12NC(=O)N(CC(=O)N1CCN(c3ccccc3)CC1)C2=O (stereo unspecified),/,/,-2.5,/,2.0,3.2,-2.8,/,-0.4,-0.6
Cc1ccc(NC(=O)c2cc(S(=O)(=O)N3CCOCC3)c(Br)s2)cc1,-0.4,-6.8,-47.5,-2.6%,-6.7,-4.4,2.8,-1.3,0.0,-1.0
CCOC(=O)c1c(C)[nH]c(C(=O)OCc2ccc(F)cc2)c1C,-3.4,5.2,-0.1,-10.5%,8.7,13.9,-0.1,2.8,-0.3,-0.8
COc1ccc(S(=O)(=O)N(CCc2ccccc2)CC(=O)O)cc1,-2.6,-4.0,/,-0.5%,/,/,/,-13.1,-0.1,-4.6
CC(C)=CC(=O)OCC(=O)Nc1nc(C)c(Cl)cc1Cl,-3.0,-2.9,/,1.1%,/,/,/,-2.3,-0.1,0.1
CC(N=C(NS(=O)(=O)c1ccc(Cl)cc1)c1ccccc1)C(=O)O (stereo unspecified),1.6,-8.6,/,-3.8%,/,/,/,-2.0,-0.5,2.9
CCOC(=O)N1CCN(CC(=O)Nc2cc(OC)c(OC)cc2C#N)CC1,1.0,9.6,-4.7,-2.0%,-1.9,14.1,-4.7,15.9,-0.7,-5.1
COc1ccc(OC)c(S(=O)(=O)N2CCCC(C(=O)NCc3cccnc3)C2)c1 (stereo unspecified),0.6,7.2,0.1,/,2.3,-0.9,-1.7,-4.4,-0.2,-7.1
COc1ccc(N(C)S(=O)(=O)c2cccc(C(=O)OCC(=O)NCc3ccccc3OC)c2)cc1,0.4,4.3,-7.9,/,-4.5,-36.1,-0.5,3.3,-0.1,-4.1
CCSc1nc(O)c(C(c2cccc(OC)c2)c2c(O)nc(SCC)[nH]c2=O)c(=O)[nH]1,-0.6,-12.6,-2.6,/,7.2,8.2,2.0,-6.1,-0.5,0.9
CC(C)(C)c1ccc(C(=O)N/N=C2\C3CN4CCN(C3)CC2(c2ccccc2)C4)cc1,3.0,-6.1,/,-13.7%,/,/,/,-15.4,0.1,-0.9
CC(=O)N1CCOc2ccc(S(=O)(=O)NCCc3cccc(C)c3)cc21,1.4,10.7,-0.3,2.2%,-1.4,-9.7,-1.2,-20.7,-0.3,-4.2
CN(C(=O)C12CC3CC(CC(C3)C1)C2)C1CCS(=O)(=O)C1 (stereo unspecified),-1.3,-17.5,/,-4.1%,/,/,/,-1.3,1.1,-3.1
COc1ccc2cc(CN(CC3COCCO3)S(=O)(=O)c3ccccc3)c(=O)[nH]c2c1 (stereo unspecified),3.2,6.9,/,-10.5%,/,/,/,16.3,/,/
Cc1oc(-c2cccc(Br)c2)[n+]([O-])c1C,-2.4,-12.0,-1.0,16.5%,15.4,21.1,2.1,5.6,0.3,-5.2
CC(C)CN(CC(C)C)C(=O)CN1c2cccc3cccc(c23)S1(=O)=O,-0.1,2.4,-2.1,-8.5%,-0.2,5.1,0.3,-0.4,0.0,/
O=S(=O)(CCCc1ccccc1)c1ncn[nH]1,/,/,/,6.0%,/,/,/,-2.6,-0.7,-4.0
CC1(C)Cc2ccccc2-c2nnc(SCc3ccc(C#N)cc3)n21,3.0,24.8,/,9.7%,/,/,/,18.3,0.3,0.7
Cc1cc([N+](=O)[O-])ccc1NC(=O)c1cc2ccccc2o1,0.1,-4.0,9.0,/,19.7,8.5,2.3,-7.0,-0.6,1.6
COC(=O)c1nn(-c2ccccc2)c(Cl)c1/C=N/OCc1ccc(C)cc1,3.2,-5.6,/,0.5%,/,/,/,-4.9,0.1,-4.1
O=C(COc1ccc(Cl)cc1)Nc1cc2c3c(c1)CC(=O)N3CCC2,-2.2,5.8,-34.3,28.8%,-5.4,-12.8,-0.7,-0.3,-0.1,1.5
C=CCCC(=O)NC1CCCc2c1cnn2-c1ccccc1F (stereo unspecified),-1.4,-6.6,1.2,/,5.5,2.2,-0.1,-5.4,0.5,/
CCN(CCCn1c(=S)[nH]c2ccc(N3CCOCC3)cc2c1=O)c1ccccc1,-4.4,25.9,3.8,6.9%,-0.4,1.3,1.0,7.8,0.8,-1.8
